Screens as filed in PubChem.
A1 inh – inhibitors of the anti-apoptotic protein A1, read as caspase activation. 0.066% of 330,000 active. caspase activation, % (no concentration beside the values). MEF A1-2A-BIM cells, Caspase-Glo 3/7 luminescence, 3 h; percent of clofoctol response, vehicle zero;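 active = over half of replicate activation scores above 10%, or exactly half above 10 with the replicate mean above 10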;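 note: wells of about 30 µL received 50 nL stock; many hits fall short of the cut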
LANA-H2B inh – blocks KSHV LANA binding to histone H2A/H2B | Q9QR71 | cell-free LANA-H2A/H2B peptide, fluorescence polarization | inhibition, % (test concentration not listed) | 0.6% of 320,000 active | AID 2629; in the data active = inhibition mostly above about 10%, no sharp cut-off; inactive = mostly below about 6.7%;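 note: stock transfer was 7.5 nL into about 10 µL; 0% = median of vehicle wells and 100% = median of positive control wells; one replicate is shown; the record names a cut of 25% in any replicate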
Target sequence (Q9QR71 whole entry, looked up): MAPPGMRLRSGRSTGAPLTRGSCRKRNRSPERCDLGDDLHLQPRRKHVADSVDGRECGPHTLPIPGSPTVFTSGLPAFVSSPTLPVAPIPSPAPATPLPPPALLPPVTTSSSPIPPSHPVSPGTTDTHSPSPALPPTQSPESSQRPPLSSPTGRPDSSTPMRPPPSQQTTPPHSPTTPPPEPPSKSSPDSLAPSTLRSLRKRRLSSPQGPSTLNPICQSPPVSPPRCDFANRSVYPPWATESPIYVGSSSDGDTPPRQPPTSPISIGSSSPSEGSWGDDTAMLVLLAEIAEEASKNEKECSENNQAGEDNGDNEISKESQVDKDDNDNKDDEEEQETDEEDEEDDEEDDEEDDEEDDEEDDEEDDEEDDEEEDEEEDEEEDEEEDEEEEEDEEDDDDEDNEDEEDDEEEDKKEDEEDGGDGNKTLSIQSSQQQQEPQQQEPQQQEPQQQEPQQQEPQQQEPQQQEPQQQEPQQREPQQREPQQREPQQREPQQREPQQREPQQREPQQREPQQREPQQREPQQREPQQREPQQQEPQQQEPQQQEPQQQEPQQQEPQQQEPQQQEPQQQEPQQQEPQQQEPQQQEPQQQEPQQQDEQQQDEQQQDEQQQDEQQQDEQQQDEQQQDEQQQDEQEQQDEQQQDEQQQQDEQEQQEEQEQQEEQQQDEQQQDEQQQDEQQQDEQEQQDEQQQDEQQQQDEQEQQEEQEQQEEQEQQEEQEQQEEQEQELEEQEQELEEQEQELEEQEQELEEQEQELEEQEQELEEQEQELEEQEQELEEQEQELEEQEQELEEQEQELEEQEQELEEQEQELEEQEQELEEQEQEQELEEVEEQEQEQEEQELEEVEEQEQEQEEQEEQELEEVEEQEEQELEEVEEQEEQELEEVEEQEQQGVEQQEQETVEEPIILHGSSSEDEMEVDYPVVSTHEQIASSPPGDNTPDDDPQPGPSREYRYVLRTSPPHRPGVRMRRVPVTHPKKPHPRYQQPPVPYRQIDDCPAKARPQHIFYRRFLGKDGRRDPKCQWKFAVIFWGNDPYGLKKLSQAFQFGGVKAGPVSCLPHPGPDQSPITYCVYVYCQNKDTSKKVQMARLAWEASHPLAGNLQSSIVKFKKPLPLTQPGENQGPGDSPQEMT
ALR H2O2 inh – human ALR oxidase inhibition via reduced H2O2. P55789. purified ALR, DTT oxidation, H2O2 HRP-luminol luminescence. inhibition, % (concentration not given with the values). 3.8% of 290,000 active. AID 485317;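 active = mean and each replicate at 75% or more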;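 note: stock transfer was 7.5 nL into about 7.5 µL; 0% = neutral wells and 100% = wells with inactivated enzyme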
rRNA inh HTS – inhibits bacterial ribosomal RNA function over humanized ribosomes; 1.6% of 350,000 active; GFP signal change (wild-type ribosome), % (concentration not given with the values); AID 720706; E. coli WT GFP vs humanized-ribosome RFP mutants, fluorescence, 24 h; stronger effect = lower value; DMSO median 0, no signal -100;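 active = significant combined selectivity score with lowered wild-type GFP, culture density cut under 30%, mutant RFP and density less affected; inactive = any of these conditions unmet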; note: one replicate is shown; some compounds called inactive have numbers as strong as hits
Calb FLC – affects C. albicans growth with fluconazole; C. albicans CaCi-2 (fluconazole-resistant clinical isolate) + fluconazole, Alamar Blue growth, 48 h; 0.57% of 300,000 active; AID 1979; growth inhibition, % (test concentration not listed);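 active = most replicates above 75%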;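 note: all wells also contain fluconazole at 8 µg/ml as a sub-toxic cotreatment; 0% = median of DMSO wells and 100% = median of geldanamycin control wells; wells of about 8 µL received 7.5 nL stock; the first replicate is given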
B2AR ag – human beta-2 adrenergic receptor agonism by FAP | AID 504454 | P07550 | 0.43% of 340,000 active | Am2.2-beta2AR cells, FAP receptor internalization, flow cytometry; reference of the scale not given here | response, % (no concentration beside the values);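 active = response above a set limit, near 3 SD of response in nonfluorescent compounds, cut at about 42% in these data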;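 note: stock transfer was 100 nL into about 11 µL; a reference agonist was the positive control; negative values mostly stem from fluorescent compounds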
Beta cell apopt – blocks beta cell apoptosis. INS-1E cytokine-induced death, ATP luminescence, 48 h; percent of positive-control rescue, neutral wells zero. protection from apoptosis, % (test concentration not listed). 0.8% of 300,000 active. AID 435005;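 active = all replicates at 75% or more, or half of them and the mean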;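 note: 0% = cytokine-treated negative control wells and 100% = positive control rescue; higher means more ATP so stronger rescue from cytokine killing; wells of about 40 µL received 100 nL stock; the first replicate is given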
T cruzi repl – blocks replication of Trypanosoma cruzi. T. cruzi beta-gal in NIH3T3, luminescence, 90 h. 1.4% of 300,000 active. inhibition, % (concentration not given with the values). AID 1885;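 active = mean inhibition across valid replicates above about 55%, limit read from the data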;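 note: signal also drops with host cell toxicity which is not excluded here; 0% = plate median of DMSO wells and 100% = zero luminescence signal; higher percent means less beta-gal luminescence so fewer parasites; stock transfer was 50 nL into about 50 µL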
rRNA inh HTS OD600 – also measured in rRNA inh HTS; calls as there; OD600 change, %; measured here: OD600 growth;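 optical density of the mix in the first replicate; 0 = DMSO median and -100 = no signal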
rRNA inh HTS RFP – further read-out of rRNA inh HTS, marked with its call; RFP signal change, %; measured here: RFP humanized mutant strains;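 first replicate; 0 = DMSO median and -100 = no signal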
* hit, by the source's call; i = inactive; / = no result given.

SMILES	A1 inh	LANA-H2B inh	ALR H2O2 inh	rRNA inh HTS	rRNA inh HTS OD600	rRNA inh HTS RFP	Calb FLC	B2AR ag	Beta cell apopt	T cruzi repl
COc1ccc(CCN(C)Cc2c(O)ccc3ccccc23)cc1OC	1.0	-0.9	-13.5	-13.9	-3.9	1.2	15.5	-4.9	-4.6	-7.1
Cc1cccc(-n2cc(-c3ccccc3)c3c(=O)[nH]cnc32)c1	-0.3	-0.3	2.2	/	/	/	-1.4	-3.1	2.6	-7.0
CCc1cccc2c(C(=O)COC(=O)c3cnc(C)cn3)c[nH]c12	-0.5	-2.2	/	2.2	8.4	-4.9	/	-4.0	-2.7	/
C=CCCC(=O)Nc1nc(C)c(-c2csc(Nc3cc(OC)ccc3OC)n2)s1	-0.2	4.2	-16.8	6.2	17.5	6.4	12.6	19.6	4.3	7.1
CCC(=O)N/C(=N/c1nc(C)cc(C)n1)Nc1ccc(C)cc1	-0.7	0.2	-6.5	10.2	19.8	-1.2	-10.9	-4.2	-2.7	6.3
COc1cc2c(cc1OC)C(C(=O)O)C(c1ccc(C)o1)N(C)C2=O (configuration not stated)	0.6	0.7	-6.8	/	/	/	-2.8	-3.1	-11.1	-7.8
Oc1c(Cl)cc(Cl)cc1C=Nc1ccccc1N1CCCC1	0.6	4.9	98.1*	/	/	/	0.1	/	-8.4	-12.8
CCCc1nc(-c2ccccc2O)n(-c2ccccc2)n1	0.0	1.3	2.6	/	/	/	5.3	-7.8	-1.5	3.0
COc1cccc(NC(=O)Nc2nc(SC)ns2)c1	-6.7	5.6	-1.8	-33.0	-31.2	-3.9	-18.4	-88.9	/	-13.5
O=C(C(=O)N1CCN(c2cccc(Cl)c2)CC1)c1cn(CC(=O)N2CCOCC2)c2ccccc12	0.8	-10.2	-5.9	6.4	0.2	1.7	12.1	1.4	-2.1	7.5
O=C(Nc1nncs1)c1cc(-c2ccco2)nc2ccccc12	0.7	3.4	10.5	-3.0	15.6	2.7	/	-8.0	2.8	/
C/C(=N\NC(=O)c1ccn(C)n1)c1ccco1	-3.6	1.7	-3.4	10.4	22.4	3.3	-4.8	-2.1	-3.9	-0.5
Cc1noc(C)c1CSCC(=O)Nc1cc(Cl)ccc1N1CCOCC1	0.2	2.5	-1.3	3.0	-11.5	0.3	-3.1	13.8	2.1	13.6
COc1ccc(NS(=O)(=O)c2ccc(F)c(Cl)c2)cn1	0.1	5.2	-9.3	6.8	3.8	4.1	-1.2	8.4	-5.3	4.6
O=C(CSc1ccccn1)Nc1cccc2ccccc12	0.7	i	-16.1	/	/	/	15.9	-1.0	2.3	-8.7
CCC(=O)N1c2ccc(S(=O)(=O)CCC(=O)N3CCN(c4ccccc4)CC3)cc2CC1C (configuration not stated)	-0.5	0.7	98.5*	/	/	/	-1.4	-5.1	3.6	2.1
CCOc1nc2ccccc2cc1C=O	0.6	-2.4	0.2	14.0	9.3	-0.7	-9.1	18.7	10.1	0.2
c1ccc(-c2n[nH]c3ccccc23)cc1	0.4	4.6	-0.8	/	/	/	-30.0	-7.9	-6.9	12.5
COc1ccc(N2CCN(S(=O)(=O)CCNS(=O)(=O)c3ccccc3)CC2)cc1	-0.1	-1.7	6.1	14.4	6.1	3.0	-4.8	2.5	7.5	-9.9
CCOC(=O)C1CCN(C(=O)C2CCCN(S(=O)(=O)c3ccc(OC)c(Cl)c3)C2)CC1 (configuration not stated)	1.0	-5.5	-4.7	-5.1	-11.0	0.3	-7.3	8.8	-0.2	18.6
Cc1ccc2[nH]cc(CCCN3C(=O)c4ccccc4C3=O)c2c1	-0.7	2.6	22.9	-18.9	-41.5	-2.5	16.1	2.5	6.0	12.8
COc1ccc(NC(=S)N(CCN2CCCCC2)Cc2ccco2)cc1	0.5	3.3	-8.2	12.7	3.2	2.1	-9.9	20.3	1.4	-0.1
CC(=O)NCCOc1ccc(C(=O)O)cc1	0.3	-0.6	3.3	/	/	/	2.5	2.9	/	-19.1
Cc1ccc(S(=O)(=O)CC(=O)Nc2ncc([N+](=O)[O-])s2)cc1	-0.1	-3.2	-4.1	3.6	-8.2	8.4	-4.3	7.1	0.6	-6.4
O=C(N/N=C/c1ccoc1)c1ccccc1Br	2.0	3.2	-16.8	8.3	16.2	2.3	-10.8	-2.4	-1.8	-14.1
C/C(CCc1ccccc1)=N\NC(=O)CCc1ccccc1	-0.3	-9.2	-3.0	/	/	/	-9.0	0.0	-13.2	-0.5
O=C(COc1ccccc1)OC(C(=O)c1ccccc1)c1ccccc1 (configuration not stated)	0.1	2.8	-6.7	14.2	2.2	-5.3	1.2	-1.2	-7.3	-13.3
CCOc1ccc(NC(=O)Cc2ccc(S(=O)(=O)N3CCCCC3)cc2)cc1OCC	0.6	-0.9	-5.9	-5.0	-6.8	3.6	/	12.3	-3.5	/
Cc1nn(-c2ccccc2)c(Cl)c1/C=N/NC(=O)c1ccccc1F	-4.1	-4.0	-1.2	-10.8	5.8	-0.7	-0.9	6.3	-3.5	8.8
O=C(Nc1ccccc1)Nc1cccc2ccccc12	-1.0	-5.2	-2.7	6.5	9.9	6.4	-18.1	1.9	6.3	-7.9
S=C(NCc1ccco1)N/N=C/c1ccncc1	0.9	2.6	7.4	6.8	-11.8	25.8	-8.0	-4.3	-2.3	-11.2
COc1ccc(/C=N/N=C(\N)c2nonc2N)cc1OC	-0.7	8.5	-9.2	5.0	-1.2	-0.6	-0.5	-1.7	6.7	-2.4
COc1ccc(-c2nc3ccccc3n2Cc2ccc(C)cc2)cc1	-0.2	-0.4	/	/	/	/	-19.1	0.1	3.6	37.3
Cc1ccc(S(=O)(=O)N(CCCN(C)C)Cc2ccc3c(c2)OCO3)cc1	0.9	0.4	/	2.3	12.5	1.1	-6.7	7.3	-4.7	1.3
COc1cc(-c2nn3c(-c4cccnc4)nnc3s2)cc(OC)c1OC	-0.1	-7.1	3.8	/	/	/	6.6	1.7	6.3	5.8
CCCC1C2CN(C(C)=O)CC=C2C(C#N)=C(N)C1(C#N)C#N (configuration not stated)	0.2	-1.3	8.2	/	/	/	5.1	5.4	-0.3	-7.8
Cc1ccc(NC(=O)N[C@H](C(=O)O)C(C)C)c(C)c1	0.3	0.0	/	1.1	-1.8	-0.3	-2.1	1.5	-6.7	-2.0
COc1ccccc1CNC(=O)CCS(=O)(=O)c1ccc2c(c1)CC(C)N2C(=O)C1CC1 (configuration not stated)	0.8	-2.4	-2.0	2.5	3.7	-2.1	15.8	-16.4	-1.8	-7.0
Cc1ccc(N(C(=O)Nc2ccccc2)C2=NCCC2)cc1	-0.2	-0.1	-10.3	-9.3	-13.0	-3.7	-1.5	0.1	-5.3	5.0
CC(=O)c1cccc(NC(=O)COC(=O)Cn2cnc3ccccc32)c1	0.9	4.9	-0.6	10.4	16.4	5.0	/	-2.6	-4.6	/
Cc1ccc(-c2csc(=S)n2CC(=O)OCC(=O)NCc2ccc(F)cc2)cc1	0.4	2.3	21.2	/	/	/	-17.9	/	-6.3	-10.8
CCCCCC(=O)NNC1=NCC(Cc2ccccc2)S1 (configuration not stated)	-0.3	-4.8	-10.7	4.0	-8.8	-1.7	-39.5	-7.4	-6.5	-8.1
CSc1nc(N)nc(SCC(=O)C(C)(C)C)c1C#N	0.4	-3.4	1.6	/	/	/	14.6	1.1	1.4	30.7
COCC(=O)N1CCC(Oc2ccc(C(=O)NCc3csc(C(C)C)n3)cc2)CC1	1.7	1.6	-42.9	0.9	6.3	-1.8	3.9	-1.4	0.0	6.3
CC(C)c1cccc(C(C)C)c1OC(=O)[C@H]1OC(C(C)(C)C)=C[C@@H]1c1ccccc1	-0.6	-3.5	-21.4	8.0	7.4	-9.5	/	-1.5	110.9*	/
CCn1c(SCC(=O)O)nnc1-c1cccnc1	-0.6	0.2	0.6	16.7	10.6	0.5	6.8	5.8	-1.6	-10.7
COc1ccc(OC)c(S(=O)(=O)Oc2ccc(N)c3ccccc23)c1	2.0	0.4	4.9	-18.2	-15.9	-2.9	-1.2	5.7	11.5	25.9
Cc1ccc(OCC(O)CNS(=O)(=O)c2ccccc2C(=O)N2CCCCC2)cc1 (configuration not stated)	-1.0	-4.4	-16.7	/	/	/	0.6	0.9	-0.9	-7.4
COc1ccccc1C(=O)Nc1cc(C)ccc1NC(=O)c1ccco1	1.7	-1.8	5.9	-7.6	-8.9	-0.7	4.9	-2.7	0.4	-3.3
CC(=O)C1=C(c2ccccc2)OC(N)=C(C#N)C1c1ccccc1C (configuration not stated)	-0.1	-2.7	/	-33.4*	1.6*	-1.7*	-5.2	0.9	0.5	-26.9
N#CCS(=O)(=O)c1ccccc1	2.1	-0.9	-4.1	14.6	-2.6	2.7	-4.6	-7.8	1.6	-18.4
O=C(O)CSCc1nc2ccccc2[nH]1	-0.3	6.7	-7.5	8.5	10.9	-2.5	2.5	-6.1	0.2	-8.1
Cc1cc(C)cc(OCC(=O)OCC(=O)NCCC2=CCCCC2)c1	-0.1	0.6	-0.7	/	/	/	-2.0	6.5	-0.2	-9.5
CC(=O)Nc1ccc(NC(=O)C2CCN(S(=O)(=O)c3cccc4nonc34)CC2)cc1	0.2	-6.2	-5.4	/	/	/	1.6	4.8	1.4	-19.2
CCc1ccc(CN2CCC(Oc3ccc(C(=O)NCc4ccccn4)cc3)CC2)o1	-0.2	0.5	4.5	9.4	2.2	0.6	-3.0	-3.5	-1.6	-10.6
Cc1ccc([N+](=O)[O-])cc1NC(=O)CCSc1ccc(Cl)cc1	0.1	-0.2	-0.8	/	/	/	-9.1	3.7	-19.1	-4.2
O=C(CC1SC(=O)N(c2ccccc2)C1=O)Nc1cccc2ccccc12 (configuration not stated)	0.0	-3.3	3.4	13.8	9.6	0.5	-6.4	2.0	-17.1	1.8
O=C(C1=C(O)C(=O)N(CCN2CCOCC2)C1c1ccc([N+](=O)[O-])cc1)c1cc2ccccc2o1 (configuration not stated)	0.3	-2.6	70.2	/	/	/	-9.1	1.1	-4.7	-8.4
COCCn1c(-c2ccco2)csc1=Nc1cccnc1	-0.9	-19.6	-9.3	14.9	8.3	-7.5	43.4	-0.2	-2.5	-5.8
O=C(NCc1ccco1)c1ccc(COc2ccc(Cl)cc2)cc1	0.1	-6.8	-4.0	/	/	/	5.3	-5.7	-2.2	-16.1

(further entries)
SMILES	A1 inh	LANA-H2B inh	ALR H2O2 inh	rRNA inh HTS	rRNA inh HTS OD600	rRNA inh HTS RFP	Calb FLC	B2AR ag	Beta cell apopt	T cruzi repl
CCNC(=O)NC1(C(=O)Nc2ccc3c(c2)CCC3)CCCCC1	0.2	13.5	-10.0	/	/	/	-1.4	-2.5	2.4	1.2
Cc1cc(C)c(C#N)c(SCc2cc3c(cc2Cl)OCO3)n1	-0.5	-1.9	-1.1	-1.1	-5.7	-3.9	-0.7	-22.5	-6.2	-16.9
CCOC(=O)c1cc(-c2ccccc2C)nn1Cc1cc(CC)no1	0.0	-2.3	1.5	-10.3	-32.0	-2.7	/	-1.1	2.6	/
Cc1cc(C)cc(NC(=O)c2ccc(CNc3c(N4CCOCC4)c(=O)c3=O)cc2)c1	-0.8	3.5	/	4.0	-2.5	3.8	1.9	3.5	8.2	-27.0
O=C(NCCCc1ccccc1)C1CCN(c2nnc(-n3cccc3)s2)CC1	-0.5	3.4	-13.2	4.6	1.5	9.4	-1.3	-25.0	/	-24.7

An excerpt. The share of hits here may be higher or lower than overall.
